Screening results as filed in PubChem.
HPGD block: qHTS Assay for Inhibitors of HPGD (15-Hydroxyprostaglandin Dehydrogenase). Potency, µM, without a hit: at the top dose activity change, negative = inhibition, most hits filed as inhibitors. purified HPGD, NADH fluorescence kinetic, PGE2 substrate. AID 894, 2007. 4.3% of 150,000 active. 15-hydroxyprostaglandin dehydrogenase [NAD(+)] (Homo sapiens), P15428; active = well fitted inhibition curve with a large enough effect (not every such curve was filed as active); inconclusive = small, poorly fitted or top-dose-only effect, or another doubt; inactive = no such curve, though single readings can be large or run the other way;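 further: top concentration of the series not given in the record; plate controls included wells without enzyme; inactives centre near -10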
Target sequence (P15428 whole entry, looked up): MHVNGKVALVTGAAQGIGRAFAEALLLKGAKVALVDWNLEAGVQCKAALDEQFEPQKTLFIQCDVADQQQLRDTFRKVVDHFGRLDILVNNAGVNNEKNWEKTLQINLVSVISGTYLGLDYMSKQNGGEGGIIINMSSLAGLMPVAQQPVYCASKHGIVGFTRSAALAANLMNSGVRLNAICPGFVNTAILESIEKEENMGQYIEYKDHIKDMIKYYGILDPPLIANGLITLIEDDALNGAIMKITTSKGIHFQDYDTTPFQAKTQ
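NADH formation kinetics: reaction with 30 uM PGE2 and 1 mM NAD+ (final), 20 nM enzyme, Tris-HCl pH 8 with Tween 20, after 15 min compound preincubation at room temperature. Fluorescence change, last versus first of five reads.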
Active calls of the source: *; ? = inconclusive. On the % scale 0 is the no-effect control and ±100 the full control effect; potency means the concentration at half of the fitted maximal effect. An excerpt; count on the stated rates, not on these rows.

No.	SMILES	HPGD block
1	CCN1CCN(C(=O)CCN2C(=O)COc3ccc(C)cc32)CC1	-9%
2	CCc1nn2cc(C(=O)c3cc(C)ccc3O)cnc2c1-c1ccc(F)cc1	16µM*
3	COc1nc(N2CCOCC2)nc(-n2cccc2)n1	-5%
4	CCCCOc1ccc(-c2cnc3ccccc3n2)cc1	?
5	CC12CC(NC(=O)N1c1cccc(C(=O)N3CCN(c4ccccc4)CC3)c1)c1ccccc1O2 (stereo not given)	-7%
6	CC(C)Cn1c(SCc2nnc(-c3cccs3)o2)nc(O)cc1=O	16µM*
7	CC(C)C[C@H](NC(=O)OC(C)(C)C)C(=O)N/N=C/c1ccc2nccnc2c1	-14%
8	O=C(c1cc(C(F)(F)F)cc(C(F)(F)F)c1)N1CCC[C@@]2(CCN(Cc3ccccc3)C2)C1	-6%
9	O=C(CSc1nc2nc(-c3cccs3)cc(C(F)(F)F)c2c(=O)[nH]1)NCc1ccco1	?
10	Cc1ccc(NC(=O)/C=C/c2ccco2)nc1	-3%
11	CCCn1c(SC(C(=O)Nc2cc(C)ccc2OC)c2ccccc2)nc2ccccc2c1=O (stereo not given)	-9%
12	CCc1c(C)c(C#N)c2nc3ccccc3n2c1N1CCN(c2cc(C)ccn2)CC1	-2%
13	CCOC(=O)C1=C2N(C)c3ccccc3N2CCC1=O	-9%
14	Cc1cccc(OCc2nnc(SCC(=O)N3CCN(c4ccccc4)CC3)o2)c1C	-15%
15	COc1c(S(=O)(=O)N2CCCC2)ccc(Cl)c1Cl	-2%
16	O=C(CCCCn1c(=O)[nH]c2ccccc2c1=O)NCCC1=CCCCC1	?
17	CCOc1ccc(C(=O)OCC(=O)Nc2ccc(SC(F)F)cc2)cc1OCC	-7%
18	CCCC[C@@H]1C[C@H]1[C@@H](NC(=O)c1ccccc1)c1ccccc1C(F)(F)F	-4%
19	Cc1noc(C)c1C(=O)Nc1nc(-c2ccccc2Cl)cs1	-18%
20	Cc1c(C(=O)NCCCN2CCCC2=O)oc2ccc(S(=O)(=O)N3CCOCC3)cc12	-11%
21	CCOc1ccc(NC(=S)NN(C)C(=S)Nc2ccc(OCC)cc2)cc1	-14%
22	Cc1ccc2nsnc2c1S(=O)(=O)N1CCCC1	-6%
23	COc1ccc(CCNC(=O)c2ccc(Cl)cc2)cc1	-2%
24	Cc1cc(C(C)(C)C)nc2[nH]n(-c3ccccc3)c(=O)c12	16µM*
25	CC(C)(C)c1ccccc1N=Cc1ccc2ccccc2n1	-6%
26	CCN(CC)CC(=O)c1ccc(-c2ccccc2)cc1	-26%
27	CCCCSC(=S)NC1CCS(=O)(=O)C1 (stereo not given)	-12%
28	COc1ccc(OC)c(S(=O)(=O)n2nnc3ccccc32)c1	-15%
29	CCOc1ccc(C(CC(=O)O)NC(=O)c2ccco2)cc1 (stereo not given)	-17%
30	COC(=O)c1ccc(-n2c(C)cc(C(=O)COC(=O)CC3Sc4ccccc4NC3=O)c2C)cc1 (stereo not given)	-10%
31	CCN(CCCNC(=O)CN(C)S(=O)(=O)c1ccc2c(c1)CCC(=O)N2)c1cccc(C)c1	-8%
32	CCN(CC)S(=O)(=O)c1cccc(C(=O)N[C@H](C(=O)NCc2ccc(Cl)cc2)C(C)C)c1	-10%
33	CCOc1cc2[nH]c(=O)n(CCC(=O)N3CCN(c4ccccc4OC)CC3)c(=O)c2cc1OCC	-15%
34	CC(=O)OC1CC(C)OC(C)O1 (stereo not given)	1%
35	CCOc1ccccc1N(C(=O)c1ccco1)C(C(=O)NC1CCCC1)c1cccnc1 (stereo not given)	5%
36	CC1(C)Oc2ccc(C(=O)NC3CCCC3)cc2N(CC(=O)NC2CCCC2)C1=O	-4%
37	CCCCN(Cc1cc2cc(OC)ccc2[nH]c1=O)C(=O)c1ccccn1	?
38	CCN(CC(=O)NCc1cccs1)c1ccc(S(=O)(=O)N2CCOCC2)cn1	-11%
39	COc1ccc(S(=O)(=O)N(n2c(C)nnc2-n2nc(C)cc2C)S(=O)(=O)c2ccc(OC)cc2)cc1	-3%
40	Cc1cc(C(=O)CN2C(=O)NC3(CCCc4ccccc43)C2=O)c(C)n1C (stereo not given)	-13%
41	Cn1cc(S(=O)(=O)N2CCN(c3ccc(F)cc3)CC2)c(=O)n(C)c1=O	-1%
42	COc1cccc(OCC(=O)NC2CCCCC2)c1	-12%
43	CCc1[nH]c(=O)c(C#N)c2c1COC(C)(C)C2	?
44	CNC(=S)N/N=C/c1cc(Br)cc(Br)c1O	?
45	CCCCC[C@H](O)/C=C\[C@@H]1[C@H](O)CC(=O)[C@@H]1CCCCCCC(=O)O	-24%

Ordered by heavy-atom count (falling): 3 of the compounds above
No.	SMILES	HPGD block
36	CC1(C)Oc2ccc(C(=O)NC3CCCC3)cc2N(CC(=O)NC2CCCC2)C1=O	-4%
37	CCCCN(Cc1cc2cc(OC)ccc2[nH]c1=O)C(=O)c1ccccn1	?
43	CCc1[nH]c(=O)c(C#N)c2c1COC(C)(C)C2	?

(next part)
No.	SMILES	HPGD block
46	Cc1c(C(=O)O)nc(/C=C\C(=O)O)[nH]c1=O	-5%
47	C=C(C(=O)OCC)C(=O)c1ccccc1	-8%
48	COc1ccc(NC2CC(=O)N(c3cccc(C)c3)C2=O)cc1 (stereo not given)	-4%
49	Cc1ccc(N/C(N)=N/c2nc3c(c(=O)[nH]2)CCCC3)c(C)c1	-28%
50	Cc1ccc(/C=N/NC(=O)CSc2nc3ccccc3c(=O)n2-c2ccccc2)s1	-16%
51	Cc1cccc(NC(=S)NCCCN2CCOCC2)c1	-6%
52	O=C(CSc1n[nH]c(-c2ccc(S(=O)(=O)N3CCCCC3)cc2)n1)Nc1nccs1	?
53	S=c1[nH]nc(COc2ccccc2)n1Cc1ccccc1	?
54	CCOCC(=O)Nc1cc(OC)c(Cl)cc1OC	-3%
55	c1ccc(N2CCN(c3ccc4nncn4n3)CC2)nc1	-4%
56	COc1ccc(/C=C/C(=O)c2ccccc2O)cc1CN1CCOCC1	-1%
57	C/C(=N\NC(=O)CSc1nc(C)cc(C)n1)c1cccs1	-21%
58	CC(C)N(CC#CC(O)(c1ccccc1)c1ccccc1)CCO	-5%
59	CC(C)(C)c1ccc(C(=O)N/C(N)=N/c2nc3ccccc3o2)cc1	?
60	CSc1ccccc1NC(=O)c1cc(C(C)C)on1	-20%

3 entries already listed, arranged by the value under HPGD block, high to low.
#	mol	HPGD block
56	COc1ccc(/C=C/C(=O)c2ccccc2O)cc1CN1CCOCC1	-1%
48	COc1ccc(NC2CC(=O)N(c3cccc(C)c3)C2=O)cc1 (stereo not given)	-4%
47	C=C(C(=O)OCC)C(=O)c1ccccc1	-8%

Next results follow:
No.	SMILES	HPGD block
61	COc1ccc(C(=O)c2ccc(Cl)cc2)c2ccccc12	-7%
62	CCCCOc1ccc(C(=O)NNC(=S)NC(=O)CC)cc1	-2%
63	Cc1noc(C)c1COc1cccc(C(=O)OCC(=O)NC(=O)c2ccc(OC(F)F)cc2)c1	-6%
64	CC1Cc2nc(SCC(=O)N3CCOCC3)n(-c3ccccc3)c(=O)c2S1 (stereo not given)	-3%
65	CCn1c(CCNC(=O)c2ccc(C)cc2)nnc1SCc1ccc(Cl)c(Cl)c1	-6%
66	CCOC(=O)Cn1nnnc1CN(Cc1ccc(OC)cc1)Cc1cc2cc(CC)ccc2[nH]c1=O	-22%
67	CC(=O)Oc1c(C(=O)c2nnc(C)o2)c(=O)n(C)c2ccccc12	?
68	CCCCCOC(=O)Cn1c(=O)oc2ccccc21	-17%
69	CC(C)N(C(=O)C[n+]1ccc(/C=N/O)cc1)C(C)C	-8%
70	CC(Sc1ccccn1)C(=O)Nc1ccc(S(N)(=O)=O)cc1 (stereo not given)	-20%
71	O=C1C(=O)N(CCN2CCOCC2)C(c2ccccn2)/C1=C(/O)c1ccccc1 (stereo not given)	-20%
72	CC(=O)N(c1ccccc1)C1CCCC1	-7%
73	O=C(C1CCCN(S(=O)(=O)c2cccs2)C1)N1CCC(N2CCCCC2)CC1 (stereo not given)	-4%
74	O=C(COc1ccc2c(c1)CCC2)N1CCc2ccccc21	-10%
75	COCCNC(=O)CNC(=O)c1nn(-c2ccc(OC)c(Cl)c2)c(=O)c2ccccc12	-10%

Of the compounds above, 3 contain a COOH group:
No.	SMILES	HPGD block
29	CCOc1ccc(C(CC(=O)O)NC(=O)c2ccco2)cc1 (stereo not given)	-17%
45	CCCCC[C@H](O)/C=C\[C@@H]1[C@H](O)CC(=O)[C@@H]1CCCCCCC(=O)O	-24%
46	Cc1c(C(=O)O)nc(/C=C\C(=O)O)[nH]c1=O	-5%

(listing goes on)
No.	SMILES	HPGD block
76	COc1cccc(C(=O)O/N=C(\N)Cc2ccc(Cl)cc2)c1	-9%
77	CCCNC(=S)NC1CCCC1	-10%
78	CCOc1cc(C(=O)Nc2ccc(C)cc2C)ccc1OCC(=O)N1CCCCC1	-2%
79	Cc1cccc(N2C(=O)CC(Sc3nnc(C)s3)C2=O)c1 (stereo not given)	25µM*
80	COc1cc(OC)c(C(=O)NNC(=S)NC2CCCCC2)cc1OC	-14%
81	COc1ccc(OC)c(C2C(C(C)=O)=C(O)C(=O)N2CCC(=O)O)c1 (stereo not given)	-7%
82	CC(C)(C)N1C(=O)c2ccc(C(=O)O)cc2C1=O	-19%
83	O=C1c2ccccc2CC1(Cc1ccccc1)Cc1ccccc1	-14%
84	Cc1cc(C(=O)OCC(=O)Nc2ccc(F)cc2)c(C)o1	-8%
85	CCOc1ccc(Br)cc1S(=O)(=O)Nc1cccc(S(=O)(=O)N(CC)CC)c1	2%
86	COc1ccc(OC)c(N(CC(=O)NCc2ccccn2)S(C)(=O)=O)c1	-9%
87	COc1ccc(C2=Nn3c(nnc3-c3ccncc3)SC2)cc1OC	?
88	COc1ccc2nc(C)cc(SCC(=O)Nc3c(C)cc(C)cc3C)c2c1	-7%
89	O=C(CCSc1ccccc1)NCC1CCCO1 (stereo not given)	16µM*
90	CN(C(=O)COC(=O)c1cccnc1Nc1ccccc1F)C1CCS(=O)(=O)C1 (stereo not given)	-11%
91	C[C@@H]1O[C@@H](Oc2c(-c3cc(O)c(O)c(O)c3)oc3cc(O)cc(O)c3c2=O)[C@H](O)[C@H](O)[C@H]1O	-12%
92	O=C(c1cc(C2CC2)on1)N1CCN(c2ccc(F)cc2)CC1	-7%
93	Cc1ccc(S(=O)(=O)c2c(N)n(-c3ccccc3)c3nc4ccccc4nc23)cc1	?
94	O=S(=O)(c1cccc(-n2cnnn2)c1)N1CCOCC1	-5%
95	CN(Cc1ccccc1)C(=O)COc1ccc(-c2nnco2)cc1	-8%
96	COCCn1nnnc1C(c1ccc(OC)c(OC)c1)N1CCc2ccccc21 (stereo not given)	-28%
97	COc1cc(C)c2occ(/C(C)=N\O)c2c1	-19%
98	CC(=NCCCn1ccnc1)C1=C(O)c2ccccc2C1=O	-15%
99	O=C(Nc1ccc(/C=C/c2nc3ccccc3o2)cc1)c1c(F)cccc1F	?
100	O=C(O)CC/C(=C\c1cc([N+](=O)[O-])ccc1Cl)c1nc2ccccc2s1	-14%
101	CC1(C)C(=O)OC(c2cc(Br)ccc2O)C(C)(C)C1=O (stereo not given)	-5%
102	Cc1cc(C(=O)NN=C(Cc2ccccc2)Cc2ccccc2)c(C)o1	1%
103	COc1ccc(C(=O)NCC2(c3ccccc3)CCOCC2)cc1[N+](=O)[O-]	5%
104	O=C(NC(=S)NCCC1=CCCCC1)c1cncc(Br)c1	-13%
105	CCn1c(=O)c2cc(C(=O)N3CCOCC3)sc2c2ccccc21	?
106	COc1ccccc1C(c1nnnn1C1CCCC1)N1CCN2CCCC2C1 (stereo not given)	-3%
107	O=C(CSc1nnc(SCc2ccc(Cl)cc2)s1)c1ccc2c(c1)OCO2	-12%
108	CC(=O)Nc1cccc(C(=O)/C=C/c2ccc(Br)cc2)c1	-13%
109	Cc1ccc(NS(=O)(=O)c2cc(C(=O)N3CCOCC3)ccc2C)cc1C	-8%
110	Cc1cc(NC(=O)CSc2ccc3nnc(-c4cccs4)n3n2)no1	-13%
111	CCOC(=O)C1=C(C)C(c2ccccc2OC)NC(=O)N1 (stereo not given)	-23%
112	COc1ccc(CCNC(=O)COC(=O)/C=C/c2ccc(OCC#N)c(OC)c2)cc1	?
113	COc1ccc(CN(Cc2ccccn2)C(=O)CN2C(=O)COc3ccccc32)cc1	0%
114	N/C(COc1cccc(Cl)c1)=N\NS(=O)(=O)c1ccccc1	2%
115	O=C(Cc1ccc(Cl)c(Cl)c1)OCCN1CCCC1	-19%
116	Cc1ccc(C)c(S(=O)(=O)C(C#N)c2nc3ccccc3nc2N2CCOCC2)c1 (stereo not given)	-9%
117	Cc1ccc(NC(=O)CCCCCNS(=O)(=O)c2ccc(C)cc2)cc1	-2%
118	O=C(NC1CCS(=O)(=O)C1)C12CC3CC(CC(C3)C1)C2 (stereo not given)	-1%
119	O=C(CSc1nc(-c2ccc(F)cc2)cs1)Nc1ccccn1	-7%
120	O=C(CC1(O)C(=O)Nc2ccc(Br)cc21)c1ccc2c(c1)OCO2 (stereo not given)	-13%
121	Cc1cccc(/C=N\Nc2cn[nH]c(=O)c2Cl)c1	-26%
122	Cc1ccc2c(c1)N(CCC(=O)NCc1cccnc1)C(=O)CO2	-4%
123	Cc1cccc(NC(=O)N2CCN(Cc3ccccc3)CC2)c1	-3%
124	Cc1ccc(-n2nnnc2SCC(=O)Nc2ccccc2N2CCCCC2)cc1C	-13%
125	CCOCCn1c(SCCc2ccccc2)nc2c1c(=O)[nH]c(=O)n2C	-11%
126	CCC(C)N=C1SCC(C)(/C=N/O)S1 (stereo not given)	-6%
127	Cc1cccc(SCc2noc(C(=O)NCC3CCCO3)c2C(=O)O)c1 (stereo not given)	-14%
128	c1cncc(-c2nn3cnnc3s2)c1	1%
129	O=C(NCCCN1CCOCC1)c1ccc(-n2c(=O)c(=O)[nH]c3ccccc32)cc1	-3%
